Bioassay records deposited in PubChem by several laboratories.
E coli growth: E. coli growth inhibition, primary screen, OD600; Escherichia coli growth, 23 h; hits give low values; OD600 absorbance (no concentration beside the values); hit rate 0.21% among 330,000;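 active = OD600 absorbance below the run mean of sample wells minus 3.6 SD, in any replicate, cut at about 0.56 in these data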;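 note: stock transfer was 300 nL into about 60 µL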
Vif A3G: inhibitors of Vif binding to APOBEC3G peptide, primary screen, biochemical, TR-FRET, GST-Vif 1-94, biotin-A3G peptide, dose response retest (AID 1117319); TR-FRET GST-Vif / biotin-A3G peptide binding; higher % means a stronger effect; test concentration not given here; strong numbers were not always called active; one-dose inhibition, %; IC50 in µM for titrated hits; hit rate 0.57% among 260,000;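 active = above the screen mean plus three standard deviations and confirmed in dose response; inconclusive = results disagree or hit not tested in dose response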;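 note: Vif residues 1-94 fused to GST binding biotinylated APOBEC3G peptide 110-148; 0% = full assay without inhibitor and 100% = GST in place of GST-Vif; retest series ran down from 100 µM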
An asterisk follows results filed as active; ? = inconclusive; . = no result given; & = joins results of further samples.

SMILES	E coli growth	Vif A3G
CCN(CC)c1ccc(C=NOCC(=O)Nc2cccc(C)c2)cc1	0.7	.
Cc1c(C=NNC(=O)c2cc(C(C)(C)C)[nH]n2)c2ccccc2n1C	0.69	.
CCOc1ccc2[nH]c(C(=O)NN=Cc3cccc(OC)c3OC)cc2c1	0.62	.
CN(c1ccc(C(=O)NN=Cc2cccc([N+](=O)[O-])c2)cc1)S(=O)(=O)c1ccccc1	0.68	.
CCCCCC=NNC(=O)Cc1ccc([N+](=O)[O-])cc1	0.72	.
COc1ccc(C2CC=C(C(=O)O)C(c3cccc(Cl)c3)N2S(=O)(=O)c2ccc(C)cc2)cc1OC (stereo unspecified)	0.67	.
CCc1n[nH]c(=S)n1N=Cc1ccc(N(CC)CC)cc1	0.71	.
CC12CC(O)C3c4ccc(O)cc4CCC3C1CCC2=NO (stereo unspecified)	0.63	.
COc1ccc(-c2ccc(C)cc2)cc1C1C2C=CCC(C)C2C(=O)N1Cc1ccccc1 (stereo unspecified)	0.73	.
CC(=O)OC1CC[C@@]2(C)C(CCC3C4CCC(C(C)O)[C@@]4(C)CC(=O)C32)C1 (stereo partly specified)	0.7	.
CC1(C)c2[nH]c3ccccc3c2CC2C(=O)N(c3ccc(F)cc3F)C(=O)N21 (stereo unspecified)	0.66	.
Cc1c(C=NNC(=O)C2(O)c3ccccc3-c3ccccc32)cnn1C	0.72	.
CC1CN(C)C(C)CC1=NOc1ccc([N+](=O)[O-])cc1 (stereo unspecified)	0.67	.
COc1ccccc1CON=Cc1cccn1-c1nccc(N(C)C)c1C#N	0.76	.
Cc1ccc(OC(C)C(=O)NN=Cc2ccccn2)cc1 (stereo unspecified)	0.69	.
COc1cc(C=NNC(=O)C2C3CCCCC32C)cc(Br)c1O (stereo unspecified)	0.66	.
Cc1nn(C)c(C(=O)NN=Cc2ccccn2)c1[N+](=O)[O-]	0.72	.
CC(C)c1nc2sc3c(=O)[nH]c(=S)[nH]c3c2c2c1CCC2	0.68	.
CC(/C=C/c1ccccc1)=NNC(=O)c1cnccn1	0.73	.
Cc1cccc(C)c1-n1c(C)cc(C=NNc2ccc([N+](=O)[O-])cn2)c1C	0.71	.
Clc1ccc2c(NN=Cc3cccc(Br)c3)ccnc2c1	0.61	.
CCOC(=O)C1C2COc3ccc(Br)cc3C2N2C(=O)CN(CC3CCCO3)C(=O)[C@@]12C (stereo partly specified)	0.67	.
O=C(CCCC(=O)NN=Cc1ccccn1)NN=Cc1ccccn1	0.69	.
CNC(=S)NN=C(C)c1ccc(C(C)(C)C)cc1	0.7	.
CC(=NNC(=O)c1ccc2c(c1)OCO2)c1cccc([N+](=O)[O-])c1	0.67	.
SMILES	E coli growth	Vif A3G
CC(C)CN1CCC(=O)N(C(CSc2ccccc2)Cc2ccccc2)CC1 (stereo unspecified)	0.68	.
CN(C)C=NS(=O)(=O)c1ccc(Cl)c(Cl)c1	0.73	.
COc1ccc(Br)cc1C=NNC(=O)c1ccco1	0.69	.
C/C(C=NNC(=O)CN1CCN(Cc2ccc(Cl)cc2)CC1)=C\c1ccco1	0.7	.
CC(=O)Nc1ccc(SCC(C)CN2CCC(O)CCC2=O)cc1 (stereo unspecified)	0.66	.
CCOc1ccc2ccccc2c1C(=O)NC1C(=O)N2C1SC(C)(C)C2C(=O)O (stereo unspecified)	0.69	.
CC(=NNC(=O)Cn1nc(C)c([N+](=O)[O-])c1C)c1ccc(O)cc1	0.69	.
CCCOc1ccc(-c2c(C(=O)NN=Cc3ccc(C)o3)nnn2-c2nonc2N)cc1	0.75	.
CCOC(=O)c1c(NC(C)=O)sc(C(C)=NNc2ccc(C(=O)O)cc2)c1C	0.69	.
O=C(C=NO)NCCCN1CCCCCC1	0.66	.
COc1ccc(NC(=O)ON=Cc2ccccc2Cl)cc1	0.64	.
CC(C)Cn1c(=O)c(C(=O)NN=Cc2cccc(F)c2)c(O)c2ccccc21	0.71	.
Cc1ccc(C=Nn2c(C3CCCCC3)n[nH]c2=S)cc1	0.7	.
CC(CC(=O)Nc1ccccc1Cl)=NNC(=O)C(=O)NCCO	0.63	.
COc1ccc(C=NNC(=O)c2cc(C34CC5CC(CC(C5)C3)C4)[nH]n2)cc1OC	0.68	.
COc1cc(NC(=O)CC(C)=NNC(=O)C(=O)NC2CCCCC2)c(OC)cc1Cl	0.71	.
COc1cccc(C=CC(=O)OCC(=O)NCC2CCCO2)c1 (stereo unspecified)	0.69	.
CC(=O)Nc1ccc(S(=O)(=O)N(C)CC(=O)NN=Cc2cccs2)cc1	0.7	.
CC(CC(=O)Nc1ccc2c(c1)OCCO2)=NNC(=O)c1ccc([N+](=O)[O-])cc1Cl	0.7	.
CCC1=C(OC(=O)N(CC)CC)N2C(=O)OC(=NCCc3c[nH]c4ccccc34)[C@]2(C)C2C1=CCC1C(=O)N(CC)C(=O)C12 (stereo partly specified)	0.69	.
Cc1cc(C)nc(NN=Cc2ccccc2OCc2ccc(Br)cc2)n1	0.69	.
O=C(c1cccc2c1-c1ccccc1C2=NO)N1CCCCC1	0.7	.
CCOc1cccc(-c2cc(C(=O)NN=Cc3ccc(OC)c(CN4CCOCC4)c3)c3ccccc3n2)c1	0.62	.
COc1cccc(C=NNC(=O)CN(C2=NS(=O)(=O)c3ccccc32)c2ccccc2)c1	0.71	.
Cc1ccc(-n2[nH]c(C)c(C=NNc3ccc([N+](=O)[O-])cc3[N+](=O)[O-])c2=O)cc1C	0.62	.
SMILES	E coli growth	Vif A3G
COc1ccc(-c2ccc(N(C)C)cc2)cc1C1C2C=CCC[C@@]2(C)C(=O)N1Cc1ccccc1 (stereo partly specified)	0.69	.
COc1ccc(NC(=O)c2nc[nH]c2C(=O)NC(C)c2ccccc2)cc1 (stereo unspecified)	0.69&0.67	.
COC(=O)C(NCc1cccc(CNC(C(=O)OC)c2ccccc2)c1)c1ccccc1 (stereo unspecified)	0.69	.
COc1ccc(C(=O)NCC(=O)NN=Cc2ccc(C)o2)cc1OC	0.7	.
CC1=NN(/C(=N/c2nnc(C)s2)Nc2ccc(C)cc2)[C@H](c2ccc(C)cc2)S1	0.72	.
CC(=O)Nc1ccc(S(=O)(=O)N(C)CC(=O)NN=Cc2ccncc2)cc1	0.69	.
O=C(NN=Cc1ccc([N+](=O)[O-])cc1)c1cnccn1	0.64	.
CSc1sc(C#N)c2c1C(=NO)CCC2	0.7	.
CC(C)(C)C1C=C(C(=O)O)OC(OCc2ccc(CO)cc2)C1 (stereo unspecified)	0.69&0.68	.
CSc1sccc1C=NO	0.64	.
Cc1ccc(NC(=O)CCC(=O)NN=Cc2ccccc2O)cc1	0.65	.
COC(=O)c1ccc(C23CC4(C2)C(CN(Cc2ccc(-c5ccccc5)cc2)C4c2ccccc2)C3c2ccc(C(F)(F)F)cc2)cc1 (stereo unspecified)	0.66	.
COc1ccc(C=NNc2nonc2N)cc1OC	0.73	.
O=C(CC(=O)Nc1ccc(Cl)cc1)NN=Cc1cccc(F)c1	0.69	.
Fc1ccc(-c2csc(C=Cc3ccc4c(c3)OCO4)n2)cc1	0.73	.
Cc1cc(=O)[nH]c(N=C(N)Nc2cccc3ccccc23)n1	0.76	.
CCc1nnc(NN=Cc2cc(C)c(C)cc2C)n1N	0.63	.
CC(C)c1c(C(=O)NN=Cc2ccc(-c3ccccc3)cc2)nnn1-c1nonc1N	0.7	.
COc1cc(C=NNC(=O)CCN2CCCCC2)ccc1O	0.69	.
CCCCN1CC(=O)N2C3c4cc(Cl)ccc4OCC3C(c3ccccc3)[C@]2(C)C1=O (stereo partly specified)	0.67	.
CC1Oc2ccccc2C=C1C1C(=C(O)c2ccccc2)C(=O)C(=O)N1CCCN(C)C (stereo unspecified)	0.7	.
CCC(Cc1ccccc1)=NNC(=O)CCn1nnc2ccccc21	0.68	.
Cc1noc(C)c1NC(=O)Nc1cccc2c1OC(CN(C)C(=O)NC(C)C)C(C)CN(C(C)CO)C2=O (stereo unspecified)	0.71	.
O=[N+]([O-])c1ccccc1-c1ccc(C=Nn2cnnc2)o1	0.74	.
Cc1ccsc1C=NNC(=O)c1ccc2c(c1)OCO2	0.62	.
SMILES	E coli growth	Vif A3G
CN(CCCCCC(=O)C=NO)Cc1ccccc1	0.74	.
COc1ccc(C=NNC(=O)c2cc3cc(OC)c(OC)cc3[nH]2)cc1	0.6	.
Cc1sc2ncn(N=Cc3ccco3)c(=O)c2c1C	0.66	.
O=C(NN=Cc1oc(O)c2ccccc12)c1ccccc1O	0.72	.
NC(=O)C(=O)NN=C1CCc2ccccc21	0.68	.
CC(=NNC(=O)C1CCCC1)c1ccc(Cl)cc1	0.74	.
CC(C)CC(CSc1ccc(Br)cc1)N1CCN(CC(C)C)CCC1=O (stereo unspecified)	0.68	.
COc1ccc(C2CC(=O)C=C(c3ccc(CNC(=O)OC(C)(C)C)cc3)C2)cc1 (stereo unspecified)	0.72	.
O=C(COc1ccccc1-c1ccccc1)NN=Cc1ccccn1	0.69	.
N#CCC(=O)NN=Cc1ccc(SCC(=O)Nc2ccccc2)o1	0.72	.
Cc1ccc(NC(=O)C(C#N)=NNc2ccc(C(=O)O)cc2)c(C)c1	0.73	.
CCc1ccc(C=NNC(=O)c2ccc(OC3CCCC3)cc2)s1	0.68	.
CCOC(=O)C(=NNc1cc(Cl)ccc1Cl)N1CCN(C)CC1	0.68	.
COc1ccc(C(C)=NNC(=S)NCc2ccco2)cc1	0.7	.
Cc1ccc(CN2CCN(N=Cc3cccc([N+](=O)[O-])c3)CC2)cc1	0.63	.
CC(C)C1COC(c2cccc(C3=NC(C(C)C)CO3)n2)=N1 (stereo unspecified)	0.69	.
CCOC(=O)c1nn(-c2ccc(F)cc2)c2c1CCC2=Cc1ccccc1	0.74	.
CCN(CC)S(=O)(=O)c1cccc(C(=O)NN=C(C)c2cccs2)c1	0.69	.
COc1cc(C=NNC(=O)c2cccc3ccccc23)cc(OC)c1O	0.67	.
O=C(NN=C1CCS(=O)(=O)c2ccc(F)cc21)c1ccc(O)cc1	0.71	.
COCc1cc(C)nc(OCC(=O)NN=Cc2cc(C)n(-c3cccc(C(F)(F)F)c3)c2C)c1C#N	0.71	.
Cc1cc(C(=O)NC(c2ccccc2)[C@@]2(C)CC2C(C)C(=O)Nc2ccc3ccccc3c2)n(C)n1 (stereo partly specified)	0.71	.
Cc1ccc(C)c(S(=O)(=O)NN=Cc2ccc(F)cc2)c1	0.64	.
CC(=O)Nc1ccc(S(=O)(=O)NN=Cc2ccc(C)s2)cc1	0.65	.
Clc1ccc(Sc2oc(C=Nn3cnnc3)cc2Br)cc1	0.7	.
SMILES	E coli growth	Vif A3G
COC(=O)NN=Cc1cn(CC(C)COc2ccccc2)c2ccccc12 (stereo unspecified)	0.72	.
O=C(NN=Cc1ccc[nH]1)c1ccc(O)cc1	0.67	.
Cc1cc(C)n(-c2nnc(C)n2N=Cc2ccccc2OCc2ccccc2Cl)n1	0.67	.
CN(C)C=NC(=S)Nc1ccccc1F	0.75	.
CC(C)NC(=O)N(C)CC1Oc2ccc(NS(=O)(=O)c3cn(C)cn3)cc2C(=O)N(C(C)CO)CC1C (stereo unspecified)	0.68	.
NC(=O)[C@@H]1CCNc2c(I)cc([N+](=O)[O-])cc2C(=O)N[C@@H](CO)C(=O)N[C@@H](Cc2ccc(O)cc2)C(=O)N1	.	2%
O=C(O)C[C@@H]1C(=O)O[C@@H]2C(COC(=O)c3cc(O)c(O)c(O)c3)O[C@@H](OC(=O)c3cc(O)c(O)c(O)c3)[C@@H](OC(=O)c3cc(O)c(O)c4c3[C@H]1[C@H](O)C(=O)O4)[C@H]2OC(=O)c1cc(O)c(O)c(O)c1 (stereo partly specified)	.	<0.2µM*
Cc1cccc(NS(=O)(=O)c2cc(NC(=O)CC(=O)c3ccc([N+](=O)[O-])cc3)ccc2C)c1	.	-3%
CC1C2(C)OCC(C#N)(C(=N)O2)C1(C#N)C#N (stereo unspecified)	.	0%
N#CC(=C1N=c2ccccc2=N1)c1c(O)[nH]c2ccccc12	.	6%
O=C(c1noc2c1CCc1ccccc1-2)N1CCc2ccccc2C1	.	10%
CN1C=CC(=C2C(=O)c3ccccc3C2=O)C=C1	.	-2%
Cc1ccc(N2CCN(CC(=O)Nc3c(C(=O)C4CC4)oc4ccccc34)CC2)cc1	.	1%
O=C(CN1CCSCC1)N1CCc2[nH]c3ccc(Br)cc3c2C1	.	23%
O=C1C=CC(=O)N1c1ccc(I)cc1Cl	.	22%
O=C1CCCc2nc3nc4ccccc4n3cc21	.	?
C#CCOCCOCCOCCNc1nc(N2CCN(C(=O)[C@H]([C@@H](C)CC)n3cc([C@@H](N)CC(C)C)nn3)CC2)nc(N2CCN(C(=O)[C@H](Cc3cc4ccccc4[nH]3)n3cc([C@@H](N)C(C)CC)nn3)CC2)n1 (stereo partly specified)	.	10%
CCOC(=O)C1=c2/c(=C/c3ccccc3OC)c(N)c(C#N)n2C(=O)C(c2ccccc2OC)S1 (stereo unspecified)	.	3%
Cc1ccc(C)c(OCC(=O)N/N=C/c2c(C)nn(-c3ccccc3)c2Cl)c1	.	-4%

Record cards, from the list above.
NC(=O)[C@@H]1CCNc2c(I)cc([N+](=O)[O-])cc2C(=O)N[C@@H](CO)C(=O)N[C@@H](Cc2ccc(O)cc2)C(=O)N1 in the list: E coli growth: .; Vif A3G: 2%
CCOC(=O)C1=c2/c(=C/c3ccccc3OC)c(N)c(C#N)n2C(=O)C(c2ccccc2OC)S1 (stereo unspecified) in the list: E coli growth: .; Vif A3G: 3%
O=C(CN1CCSCC1)N1CCc2[nH]c3ccc(Br)cc3c2C1 in the list: E coli growth: .; Vif A3G: 23%

This is a subset; rates above refer to the full screens.
